High-throughput results (PubChem)
PKD1 kinase inh = inhibitors of human PKD1 kinase, biochemical, fluorescence polarization; Serine/threonine-protein kinase D1 (Homo sapiens), Q15139; actives 0.056% (n = 200,000); AID 797, 2007; inhibition, %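 (about 10 µM by stock and volumes)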; PKD1 kinase fluorescence polarization assay;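 active = inhibition of 50% or more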;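 also: controls were vehicle for no effect and a reference inhibitor for full effect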
Target sequence (Q15139 whole entry, looked up): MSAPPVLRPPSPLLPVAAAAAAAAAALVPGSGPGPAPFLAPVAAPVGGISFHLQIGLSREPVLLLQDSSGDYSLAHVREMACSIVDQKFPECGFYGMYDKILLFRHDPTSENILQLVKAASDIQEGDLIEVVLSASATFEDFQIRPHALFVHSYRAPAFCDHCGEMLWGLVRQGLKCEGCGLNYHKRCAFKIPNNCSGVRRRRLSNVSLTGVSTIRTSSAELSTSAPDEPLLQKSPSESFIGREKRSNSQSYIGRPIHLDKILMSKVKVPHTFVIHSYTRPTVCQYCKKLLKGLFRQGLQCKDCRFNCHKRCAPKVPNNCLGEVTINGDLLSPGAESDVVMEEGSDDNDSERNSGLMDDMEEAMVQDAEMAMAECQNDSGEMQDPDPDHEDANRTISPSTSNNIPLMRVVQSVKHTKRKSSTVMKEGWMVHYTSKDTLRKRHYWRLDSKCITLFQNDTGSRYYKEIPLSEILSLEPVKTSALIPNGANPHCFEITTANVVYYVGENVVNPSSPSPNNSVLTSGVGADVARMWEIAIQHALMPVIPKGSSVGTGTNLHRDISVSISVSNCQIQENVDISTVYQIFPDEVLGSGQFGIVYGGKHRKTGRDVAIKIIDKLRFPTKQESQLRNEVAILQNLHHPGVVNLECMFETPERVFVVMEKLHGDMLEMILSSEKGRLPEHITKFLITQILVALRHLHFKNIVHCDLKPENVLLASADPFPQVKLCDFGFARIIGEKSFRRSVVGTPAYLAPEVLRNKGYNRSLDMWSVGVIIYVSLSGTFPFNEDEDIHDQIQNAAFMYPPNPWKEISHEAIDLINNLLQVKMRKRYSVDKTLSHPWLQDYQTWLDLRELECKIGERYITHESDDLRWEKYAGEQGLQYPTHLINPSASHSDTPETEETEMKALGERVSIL
INS promoter inh = inhibitors of insulin promoter-driven GFP, primary screen, imaging, TRM-6 cells (human fetal islet line), eGFP reporter, cell count; reporter expression induced with tamoxifen; inhibition, % at 2 µM; actives 0.9% (n = 130,000); AID 1273, 2008;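 active = inhibition above the mean plus 3 SD, with well images judged a real hit on visual review, cut at about 60% in these data, passing the limit was not always enough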
RGS16-Gao = modulators of RGS16 binding to Galphao, primary screen, biochemical, human proteins, multiplexed bead flow cytometry | actives 0.38% (n = 220,000) | binding response (% of control), % at 10 µM | bead-based flow cytometry RGS16-Galphao binding, fluorescence; actives lie on both sides;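 active = below 25% or above 175%, edge rows of some plates excepted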;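 also: Galphao activated by GDP with aluminum fluoride before binding; 100% = wells without compound and 0% = beads without RGS; some results beyond the cut were filed as inactive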
GALR2 ag = GALR2 receptor agonists, primary screen, cell-based; activation, %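 (tested at 5 µM)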; actives 0.48% (n = 140,000); GALR2-expressing cells, agonist activation read-out; AID 803, 2007;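 active = above mean plus 3 SD of all compounds, about 5% in these data, not always enough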;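 also: 0% = vehicle buffer wells and 100% = reference agonist at full effect; tested in CHO reporter cells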
HSV replic up = enhancers of HSV replication in host cells, fold increase, host cell viability. HSV replication augmentation in cells. maximum fold increase. actives 0.005% (n = 220,000);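 active = peak rise of 1.5-fold or more in the series; tested in PC3 cells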;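 also: first round at 10 µM; read as green reporter fluorescence; hits show the peak of a series up to 25 µM; 1 = signal of infected wells without compound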
INS promoter inh cell count = recorded beside INS promoter inh, whose call it bears; normalized cell count, %; measured here: cell count, toxicity; reference of the scale not given here;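 cells exposed to compound for 48 h; stained nuclei by imaging scaled within each plate; lower means fewer cells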
HSV replic up primary fold = further read-out of HSV replic up, marked with its call; fold increase; compound at 10 µM; measured here: primary screen fold increase 10 uM; tested in PC3 cells;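 GFP signal in the first replicate; 1 = infected wells without compound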
* hit, by the source's call; i = inactive; x = not tested or not shown.

SMILES	PKD1 kinase inh	INS promoter inh	INS promoter inh cell count	RGS16-Gao	GALR2 ag	HSV replic up	HSV replic up primary fold
CCCC(=O)c1ccc2c(c1)OCCO2	-11	15	102	59	-0.3	i	1.1
CC(C)c1nc(SCC(=O)NC(=O)NC(C)(C)C)n[nH]1	x	x	x	96	x	i	0.93
O=C1CC(N2CCN(Cc3ccccc3)CC2)C(=O)N1CCc1ccccc1 (centres undefined)	-1	15	99	98	-3.5	i	1.4
C[N+]1([O-])[C@@H]2Cc3cc4c(cc3[C@@H]1Cc1cc3c(cc12)OCO3)OCO4 (some centres undefined)	x	x	x	99	x	i	0.47
COc1cccc(NC(=O)Cn2c(CCC(=O)O)ccc2-c2ccc(Cl)cc2)c1	3	x	x	119	x	i	1.1
COC(=O)CNC(=O)COC(=O)/C=C/c1ccc2ccccc2n1	-1	-12	100	94	x	i	0.97
CC[C@H](C)[C@H](NC(N)=O)C(=O)NCCc1ccc(OC)c(OC)c1	3	x	x	92	x	i	0.85
CN(Cc1ccccc1)c1ccc(N2C(=O)CCC2=O)cc1[N+](=O)[O-]	-12	29	127	95	x	i	0.91
Cc1csc2ncc(C(=O)N3CCCc4ccccc43)c(=O)n12	-11	x	x	105	-2.3	i	0.99
COc1ccc(CCNc2ncnc3c2[nH]c2cc(OC)c(OC)cc23)cc1OC	x	x	x	95	x	i	0.53
CCCc1nc(SCC(=O)N2CCCc3ccccc32)c2c(=O)n(C)c(=O)n(C)c2n1	-2	x	x	112	-3.1	i	0.68
COc1cccc(-c2noc(C3CCCN(C(=O)CC(C)(C)C)C3)n2)c1 (centres undefined)	-4	-36	79	100	x	i	1
O=C(O)CCCCCCC1C(=O)NC(=O)N1CCC(O)C1CCCCC1 (centres undefined)	1	-26	85	x	-0.8	i	0.84
CC(C)(C)NC(=O)Cn1nnc(-c2cccs2)n1	-2	-33	112	101	-1.4	i	0.93
Cn1c(SCc2c(Cl)cccc2Cl)nnc1-c1cccs1	8	x	x	101	-2.5	i	1.1
CNS(=O)(=O)c1ccc(Oc2ccc(S(=O)(=O)NC)cc2)cc1	7	x	x	107	0.4	i	0.89
CC(C)(C)NC(=S)N/N=C/c1c(Cl)cccc1Cl	x	x	x	102	x	i	0.98
CC(=O)Nc1ccc(S(=O)(=O)Nc2cccc(-c3csc(C)n3)c2)cc1	-8	x	x	106	x	i	1.1
CCS(=O)(=O)N1CCC(C(=O)NCc2ccc3c(c2)OCO3)CC1	0	36	120	101	x	i	0.9
COC(=O)c1c(C)[nH]c(C=O)c1-c1ccccc1	x	x	x	101	x	i	1
O=C1CN(c2nc(-c3cccs3)nc3sc4c(c23)CCCC4)CCN1	6	x	x	100	x	i	1
O=C(CCN1C(=O)c2ccccc2C1=O)N1CCN(Cc2ccccc2)CC1	-8	-34	243	111	-2.9	i	0.91
COc1ccc2[nH]c(C)c(CCN3C(=O)C4CC=CCC4C3=O)c2c1 (centres undefined)	-6	x	x	100	-0.9	i	0.85
O=C(O)CCC1OC(=O)C(O)=C1c1ccccc1 (centres undefined)	x	x	x	95	x	i	0.84
Cc1nnc(NC(=O)c2c(-c3ccccc3Cl)noc2C)s1	7	12	157	105	x	i	1

Carrying on.
SMILES	PKD1 kinase inh	INS promoter inh	INS promoter inh cell count	RGS16-Gao	GALR2 ag	HSV replic up	HSV replic up primary fold
O=C(Cc1ccccc1)Nc1cccc(NC(=O)c2cccs2)c1	-7	-20	63	107	x	i	0.85
COc1ccc(C(=O)NNC(=O)C2CCCO2)cc1 (centres undefined)	x	x	x	99	x	i	0.95
COc1ccc(-c2noc(CN3CCCC(OCc4ccccn4)C3)n2)cc1 (centres undefined)	x	x	x	101	x	i	0.98
O=C(NCCN1CCOCC1)c1ccc2c(c1)N(Cc1cccc(F)c1)C(=O)c1ccccc1S2	1	30	42	94	x	i	1
O=C(CSc1ccsc1[N+](=O)[O-])N1CCN(c2ccccn2)CC1	3	-5	71	168	x	i	0.8
CCOC(=O)C/C(C)=N\Nc1ccc([N+](=O)[O-])cc1[N+](=O)[O-]	1	x	x	97	x	i	0.81
CC(C(=O)O)N1CCCCC1 (centres undefined)	x	x	x	99	x	i	1.1
Cc1ccc(OCC(=O)N/N=C/c2cn(C)c3ccccc23)cc1	x	x	x	105	x	i	0.9
CC(C)Cn1c(SCC(=O)N2CCCc3ccccc32)nc2ccccc2c1=O	x	x	x	102	x	i	0.92
CCOc1ccccc1C(=O)N(C)Cc1cc2cc(OC)ccc2[nH]c1=O	-3	x	x	102	-1.2	i	0.96
COc1cc(/C=C2\CCc3c2nc2ccccc2c3C(=O)O)cc(OC)c1OC	x	x	x	103	x	i	1
CSc1nsc(SC)c1C(=O)NC(=O)Nc1cccnc1	x	x	x	101	x	i	0.98
COc1ccc(CN2C(=O)C(C)S/C2=N/N=C/c2ccco2)cc1 (centres undefined)	x	x	x	104	x	i	1.2
COc1ccccc1OCC(=O)c1[nH]c(C)c(C(C)=O)c1C	1	12	84	117	-2.2	i	0.93
Cc1cc(C)c(S(=O)(=O)N2CCCC2=O)c(C)c1	0	x	x	102	x	i	1.2
O=S(=O)(c1cccc(F)c1)N1CCN(C(=S)NCc2ccccc2)CC1	-1	-59	104	101	x	i	0.91
Cn1c(SCC(=O)NCC2CCCO2)nnc1-c1c[nH]c2ccccc12 (centres undefined)	-13	x	x	104	-1.5	i	0.8
O=[N+]([O-])c1ccc(NCCCNS(=O)(=O)c2ccccc2)c(Cl)c1	-2	-11	54	68	-2.5	i	0.99
Cc1ccc(C)c2[nH]c(=O)c(CN(Cc3nnnn3C3CCCCC3)CC3CCCO3)cc12 (centres undefined)	-8	x	x	97	-0.9	i	0.77
C=CCOc1ccc(CN(C)CC(=O)N(CC(C)C)c2c(N)n(CC(C)C)c(=O)[nH]c2=O)cc1	-14	19	95	101	-1.0	i	1
COc1cccc(-c2cc(C(F)(F)F)nc(NCc3ccco3)n2)c1	-8	-9	93	102	-1.7	i	0.95
CC1(C)Cc2nc3scc(NC(=O)c4ccccc4)c3cc2CO1	x	x	x	92	x	i	0.92
Cn1ncc(N=Cc2c(O)ccc3ccccc23)c1C(=O)N1CCOCC1	-2	-12	15	x	-1.4	i	0.97
O=C(NNC(=O)C12CC3CC(CC(C3)C1)C2)c1ccco1	1	x	x	70	x	i	1.1
Cc1c(C(=O)N2CCOCC2)[nH]c2c1C(=O)CC(c1ccc(Cl)cc1)C2 (centres undefined)	-6	18	129	109	-2.5	i	0.91

Entries of single compounds, quoted from the list. Screens in order: PKD1 kinase inh	INS promoter inh	INS promoter inh cell count	RGS16-Gao	GALR2 ag	HSV replic up	HSV replic up primary fold
CC[C@H](C)[C@H](NC(N)=O)C(=O)NCCc1ccc(OC)c(OC)c1 is listed with 3	x	x	92	x	i	0.85
O=C(O)CCCCCCC1C(=O)NC(=O)N1CCC(O)C1CCCCC1 (centres undefined) is listed with 1	-26	85	x	-0.8	i	0.84
CC(C)Cn1c(SCC(=O)N2CCCc3ccccc32)nc2ccccc2c1=O is listed with x	x	x	102	x	i	0.92
COc1cccc(-c2cc(C(F)(F)F)nc(NCc3ccco3)n2)c1 is listed with -8	-9	93	102	-1.7	i	0.95

Next records.
SMILES	PKD1 kinase inh	INS promoter inh	INS promoter inh cell count	RGS16-Gao	GALR2 ag	HSV replic up	HSV replic up primary fold
O=C(O)c1cc(-c2cccnc2)nc2ccc(Br)cc12	1	6	113	99	x	i	0.97
Cc1ccc(C(=O)Nc2nc3c(s2)CCCC3)o1	-4	18	90	96	-0.3	i	0.92
O=C(Nc1ccc2nc3n(c(=O)c2c1)CCCCC3)c1ccccn1	1	x	x	101	-1.1	i	0.91
COc1ccc(NC(=O)NCCC2=CCCCC2)cc1	-5	x	x	98	x	i	0.86
O=[N+]([O-])c1ccc(N2CCN(CCOc3nonc3-c3ccccc3)CC2)c(Cl)c1	0	10	141	104	-0.6	i	0.83
Cc1ccc2c(Cl)cc(Cl)c(OCC(=O)OCC(=O)Nc3ccc(C#N)cc3)c2n1	2	-41	99	114	-0.1	i	0.93
COc1ccc(C(=O)N/C(=C\c2ccc3c(c2)OCO3)C(=O)NCCc2nc3ccccc3[nH]2)cc1	-11	11	81	92	-0.1	i	0.98
CCCCCCc1cc2cc(S(=O)(=O)c3ccc(C)cc3)c(=O)oc2cc1O	-1	-17	91	102	45*	i	1
CCOc1ccc(/C=N/NC(=O)Cc2cccs2)cc1	x	x	x	102	x	i	0.97
Cc1ccc2nc(-c3cccc(N)c3)oc2c1	3	x	x	98	0.6	i	0.98
O=C(Cc1cn2ccsc2n1)NCCc1ccc(F)cc1	-10	-22	101	104	-1.8	i	1
CCOCCCN1CN(Cc2ccccc2)CNC1=S	12	-5	81	108	0.1	i	0.98
O=[N+]([O-])c1ccc2[nH]c(O)c(N=NC(=S)Nc3cccnc3)c2c1	x	x	x	94	x	i	0.96
CCc1ccc(OCC(=O)NCCN(C)C)c(Br)c1	0	-21	142	102	-2.9	i	0.95
CC(C)=NNC(=O)C1=NNC(=O)C1	x	x	x	101	x	i	1.1
CCOc1ccc(C(C)=O)cc1COC(=O)C1=COCCO1	-2	31	110	106	-1.3	i	0.96
O=C(N/N=C/C=C\c1ccc([N+](=O)[O-])cc1)c1cccnc1	x	x	x	102	x	i	0.95
Cc1ccc(-n2nnnc2-c2ccco2)cc1	-13	0	101	107	-4.0	i	1
CCOC(=O)c1ccc(NC(=O)CSc2nnc(-c3cccs3)n2C)cc1	-6	-91	81	105	-3.3	i	1.1
NC1=NC[C@H](Cc2ccc(O)cc2)N1CCc1cc(C(F)(F)F)cc(C(F)(F)F)c1	x	x	x	105	x	i	0.77
COCCNC(=O)C(=O)N/N=C/c1ccccc1C(F)(F)F	-6	38	110	106	-2.1	i	0.95
O=C(Nc1ccccc1O)c1cc(S(=O)(=O)N2CCOCC2)c(Cl)cc1Cl	-2	-67	138	104	-0.9	i	0.83
O=C(Cn1cnc2ccccc21)Nc1cccc([N+](=O)[O-])c1	2	26	44	58	x	i	0.93
COCCCNC(=O)C(Cc1ccccc1)NS(=O)(=O)c1ccc2c(c1)c(=O)n(C)c(=O)n2C (centres undefined)	-4	-45	96	87	0.7	i	1
O=C(Nc1cccnc1Cl)c1noc2c1CCc1ccccc1-2	-2	-33	95	103	x	i	0.97

Brought forward from above: four compounds, then new ones.
SMILES	PKD1 kinase inh	INS promoter inh	INS promoter inh cell count	RGS16-Gao	GALR2 ag	HSV replic up	HSV replic up primary fold
O=C(Nc1ccccc1O)c1cc(S(=O)(=O)N2CCOCC2)c(Cl)cc1Cl	-2	-67	138	104	-0.9	i	0.83
O=C(Cn1cnc2ccccc21)Nc1cccc([N+](=O)[O-])c1	2	26	44	58	x	i	0.93
COCCCNC(=O)C(Cc1ccccc1)NS(=O)(=O)c1ccc2c(c1)c(=O)n(C)c(=O)n2C (centres undefined)	-4	-45	96	87	0.7	i	1
O=C(Nc1cccnc1Cl)c1noc2c1CCc1ccccc1-2	-2	-33	95	103	x	i	0.97
Cc1ccc(S(=O)(=O)N(C)C)cc1NC(=O)C(C)OC(=O)c1ccc2c(c1)OCCO2 (centres undefined)	x	x	x	99	x	i	0.94
COc1ccc(C(=O)N/N=C/c2ccc(OC)c(CN3CCCc4ccccc43)c2)cc1	12	31	141	96	-0.3	i	0.87
CC(C)=CCCC(C)CN(C)CCc1ccccn1 (centres undefined)	-14	x	x	104	-0.6	i	0.99
[O-][n+]1c2ccc3nonc3c2nn1-c1ccccc1Cl	-22	27	124	102	-0.9	x	x
COc1cc(-c2cc(C(=O)Nc3c(Cl)cc(Cl)cc3Cl)c3ccccc3n2)cc(OC)c1OC	-14	0	127	105	-0.1	i	0.86
COc1ccccc1NC=C1C(=O)OC2(CCCCC2)OC1=O	8	7	152	109	-0.8	i	0.94
CC(C)CCCC(C)NS(=O)(=O)Cc1ccccc1 (centres undefined)	-11	-37	81	99	-2.1	i	0.9
Cc1nn(Cc2c(F)c(F)c(F)c(F)c2F)c(C)c1NC(=O)c1c([N+](=O)[O-])c(C)nn1C	-3	10	119	97	-2.4	i	0.84
COC(=O)C1=C(C)NC2=C(C(=O)CC(C)(C)C2)C1c1cn(Cc2ccc(Br)cc2)nc1-c1ccccc1 (centres undefined)	1	x	x	100	1.2	i	0.72
CC(NC(=O)C1CCN(S(=O)(=O)c2cc([N+](=O)[O-])ccc2Cl)CC1)c1ccccc1 (centres undefined)	0	-7	115	106	-0.3	i	0.95
Cc1ccc(NC(=O)CSCC#N)cc1	3	-83	172	93	-0.4	i	0.81
C=C(C)c1cccc(C(C)(C)NC(=O)NCC2CCCO2)c1 (centres undefined)	13	x	x	110	-2.5	i	0.93
O=C1c2ccncc2C(=O)N1c1cccc(Cl)c1	2	50	133	100	x	i	0.95
CCC(C)[C@H](NC(=O)N1CCCCC1)C(=O)OC (some centres undefined)	x	x	x	95	x	i	1.2
